Polio RdRp inh – poliovirus RNA polymerase inhibition; % elongation, % (compound at 16.7 µg/mL); poliovirus polymerase elongation, fluorescence polarization; hits give low values; actives 0.66% (n = 150,000); in the data active = % elongation below about 90%; note: some results filed as inactive read as strong as hits
Target sequence (P03300 1749-2209 limits assumed): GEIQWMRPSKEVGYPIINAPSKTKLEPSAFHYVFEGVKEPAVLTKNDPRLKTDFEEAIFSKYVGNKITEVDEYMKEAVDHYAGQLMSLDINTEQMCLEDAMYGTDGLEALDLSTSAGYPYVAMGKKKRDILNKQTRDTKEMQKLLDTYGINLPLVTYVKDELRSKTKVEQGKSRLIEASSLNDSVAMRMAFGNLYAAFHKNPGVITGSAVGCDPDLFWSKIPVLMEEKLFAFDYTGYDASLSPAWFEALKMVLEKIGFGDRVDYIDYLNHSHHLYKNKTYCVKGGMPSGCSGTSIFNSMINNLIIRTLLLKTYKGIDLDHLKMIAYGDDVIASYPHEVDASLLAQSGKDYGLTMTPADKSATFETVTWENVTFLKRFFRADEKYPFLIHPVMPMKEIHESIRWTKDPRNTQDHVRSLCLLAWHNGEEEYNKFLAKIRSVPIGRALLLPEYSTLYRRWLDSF
Polio RdRp inh intensity – second read-out of Polio RdRp inh, no call of its own (marks repeat the call); % elongation; measured here: total intensity read-out; formula for this scale not given here;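 total fluorescence in place of polarization; lower means less elongation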
Starred values were filed as active, the others as inactive.

SMILES	Polio RdRp inh	Polio RdRp inh intensity
CCc1ccc(NC(=O)N2CC=C(c3c[nH]c4ccccc34)CC2)cc1	126	150
Cc1ccc(-n2ncc(C(=O)NCc3cccs3)c2C2CCN(C(=O)OC(C)(C)C)CC2)cc1C	109	107
O=C(CN1C(=O)CC(c2ccco2)Sc2ccccc21)Nc1ccc(C(F)(F)F)cc1 (stereo not given)	102	106
Cc1ccc(C(=O)NCC(c2ccc3c(c2)OCO3)N2CCOCC2)cc1 (stereo not given)	105	103
Cc1cccc(NC(=O)N2CCN(C)c3ncccc32)c1C	101	106
O=C(NCCc1ccccc1)c1ccc2c(c1)N(Cc1ccc(Cl)cc1)C(=O)CS2	106	102
CCOC(=O)c1c(S(=O)(=O)N2CCCC(C(=O)Nc3cc(C)ccc3OC)C2)c(C)n(C)c1C (stereo not given)	107	105
Cc1cc(C)n(C(C)CC(=O)Nc2ccc(C)c(N(C)C)c2)n1 (stereo not given)	110	114
CCOC(=O)c1c(C)[nH]c(C)c1S(=O)(=O)N1CCCC(C(=O)Nc2ccc(C)cn2)C1 (stereo not given)	118	111
CSc1ncc(Cl)c(C(=O)Nc2cc(C(F)(F)F)ccc2Cl)n1	119	119
COC(=O)c1c(-c2ccc(Cl)cc2)noc1N1CCN(c2ccccc2F)CC1	105	107
CCOc1ccccc1NC(=O)Cn1ncc2c([nH]c3ccccc32)c1=O	120	121
COc1ccc(N(Cc2ccccc2)C(=O)c2nc(SC)ncc2Cl)cc1	121	113
Cc1ccc(S(=O)(=O)c2nc(-c3ccccc3)oc2N2CCN(c3ccccc3)CC2)cc1	107	110
Cc1cc(C)cc(-n2c(SCC(=O)Nc3ccccc3)nc3c(oc4ccccc43)c2=O)c1	110	104
CCOc1ccc2nc(NC(=O)c3cc(=O)c4cc(C)cc(C)c4o3)sc2c1	107	115
COCCCn1c(=N)c(C(=O)NCc2cccnc2)cc2c(=O)n3cc(C)ccc3nc21	113	114
CCOC(=O)c1ccc(N2CCN(c3cc(C)ccc3C)CC2)c(NC(=O)Nc2ccc(Cl)cc2)c1	109	104
Cc1ccccc1NC(=O)c1cn(-c2ccccc2)nc1-c1ccccc1	116	111
Cc1cc(F)ccc1NC(=O)c1c(C)oc2c1C1=NCCN1C=N2	103	100
CC1=C(C(=O)Nc2ccc(C)cc2C)C(C(C)C)n2nc(SCc3ccccc3Cl)nc2N1 (stereo not given)	106	107
Cc1cccc(OCC(=O)Nc2ccccc2C(=O)OCc2cc(=O)n3nc(C4CC4)sc3n2)c1	107	101
CCOc1ccc(-n2c(SCC(=O)N3CCc4ccccc43)nc3c([nH]c4ccccc43)c2=O)cc1	106	109
O=c1c(N2CCN(c3ccccc3)CC2)csc2ccc(Cl)cc12	103	115
CC1=C(C(=O)Nc2cccc(C(F)(F)F)c2)C(c2ccccc2)n2ncnc2N1 (stereo not given)	109	113
CCOC(=O)c1ccc(NC(=O)c2cccn(Cc3ccc(C)cc3)c2=O)cc1	106	106
COC(=O)c1cc2oc3ccccc3c2n1CC(=O)Nc1cc(OC)cc(OC)c1	105	105
CCc1c(CN2CCN(c3ccccc3F)CC2)csc1C	108	112
Cc1ccc(NC(=O)Cn2nc(-c3ccccc3)nc(Cc3ccc(Cl)cc3)c2=O)cc1	111	114
COCCNC(=O)Cn1nc(N2CCN(c3ccccc3OC)CC2)ccc1=O	107	110
CCCn1c(=N)c(C(=O)NCc2cccnc2)cc2c(=O)n3cc(C)ccc3nc21	111	111
Cc1ccc(-n2ncc(C(=O)Nc3ccc(C)c(F)c3)c2C2CCN(C(=O)OC(C)(C)C)CC2)cc1C	97	94
CCCNC(=O)c1cc2nc(-c3ccc(Br)cc3)cc(C(F)(F)F)n2n1	102	104
N#Cc1ccccc1Cn1c(=O)n(-c2ccc(F)c(Cl)c2)c(=O)c2sccc21	107	112
O=c1c2oc3ccccc3c2n(Cc2ccccc2Cl)c(=O)n1Cc1ccco1	99	104
Cc1ccc(CNC(=O)c2ccc(-c3nc(CS(=O)c4ccccc4)c(C)o3)cc2)cc1 (stereo not given)	108	110
Cn1c(CCNC(=O)c2ccco2)nc2cc(NC(=O)COc3ccc(Cl)cc3)ccc21	106	112
Cc1cccc(-c2nc(SCC(=O)NCc3ccco3)c3c(=O)n(C)c(=O)n(C)c3n2)c1	114	114
CS(=O)(=O)N1CCC(N2CCN(Cc3ccccc3)C(=O)C2=O)CC1	108	111
CCOC(=O)Cn1cc2c(c1-c1ccc(Cl)cc1)c(=O)n(C)c(=O)n2C	105	105
Cc1ccc(C)c(NC(=O)Cn2c(=O)n(CCC(=O)NCc3ccc4c(c3)OCO4)c(=O)c3ccccc32)c1	108	113
COc1ccc(CNc2ncnc3c2nc2n3CCCC2)cc1	103	97
Cc1noc2ncnc(NCc3ccc(Cl)cc3)c12	107	101
Cc1ccc(Cn2c(Cc3ccccc3)nc3ccccc32)cc1	102	105
Cc1nc(N2CCCC2)ncc1C(=O)NCc1ccc(F)cc1	105	110
CCN(CC)C(=O)Cn1cc(SCC(=O)Nc2ccccc2F)c2ccccc21	112	111
CCOc1ccccc1CNC(=O)CCc1cn(Cc2ccc(Cl)cc2)c2ccccc12	112	111
Clc1ccc2c(c1)-n1cc(-c3ccccc3)nc1CO2	101	106
Cc1nn(-c2ccc(N3CCCCC3)nn2)c(C)c1CCC(=O)NCc1ccccc1F	100	104
Cc1nc2nc[nH]n2c(=O)c1NS(=O)(=O)c1ccc(Br)cc1	102	106
CCc1ccc(-n2nc3ccc(NC(=O)COc4ccc(OC)cc4)cc3n2)cc1	108	111
Cc1ccc(S(=O)(=O)c2cn(Cc3ccccc3)c3cc(N4CCCC4)c(F)cc3c2=O)cc1	107	110
Cc1ccc(Cc2cn3cc(-c4ccc(F)cc4)nc3s2)cc1	109	105
Cc1nc(SCc2ccccc2Cl)c(C#N)c(C)c1C	104	103
Cc1cccn2c(=O)c(/C=C(\C#N)c3nc4ccccc4s3)c(Oc3ccc(Br)cc3)nc12	100	124
Cc1cccc(C)c1NC(=O)Cn1cc(C(=O)c2ccco2)c2ccccc21	107	111
CCOc1ccc(CNC(=O)C2CCN(c3nn4c(=O)cc(C)nc4s3)CC2)cc1	101	103
CN(C)S(=O)(=O)c1ccc2c(c1)N(CC(=O)NCc1cccc(Br)c1)C(=O)CS2	105	105
CCc1nn(CC(=O)N2CCN(c3cc(C)ccc3C)CC2)c(=O)c2cc3occc3n12	100	105
CCOC(=O)c1[nH]c2ccccc2c1NC(=O)c1ccccc1OC	104	105
More results.
SMILES	Polio RdRp inh	Polio RdRp inh intensity
COc1ccccc1NC(=O)c1sc2nc3c(cc2c1N)CCCCCC3	111	106
Cc1cccc(NC(=O)C2CCCN(c3nnc(-n4c(C)ccc4C)s3)C2)c1C (stereo not given)	106	105
COc1ccc(C2=NS(=O)(=O)N(C)C(C(=O)Nc3ccc(OC(F)(F)F)cc3)=C2)cc1	114	117
Cc1ccc2nc3c(c(Nc4ccc(C)c(C)c4)c2c1)CCC3	105	109
O=C(Cn1cc(S(=O)(=O)c2ccccc2)c(=O)c2cc(Cl)ccc21)Nc1ccc2c(c1)OCO2	107	114
Cc1ccc(NC(=O)Cn2c(=O)n(Cc3nc(C)no3)c(=O)c3ccccc32)c(Cl)c1	109	113
Cc1cc2ccccc2n1CCNC(=O)c1ccccc1F	102	111
COC(=O)c1ccc(Cn2c(SCc3ccc(F)cc3)nc3ccncc32)cc1	107	109
Cc1cccc(-n2c(=O)c3c4c(sc3n3cnnc23)CCCC4)c1	103	109
Cn1cc(S(=O)(=O)c2ccc(Cl)cc2)c(=O)c2cc(F)c(N3CCCCCC3)cc21	108	111
CCc1ccccc1NC(=O)N1CCN(c2cc(-c3noc(C)n3)ccc2C)CC1	110	90
COc1ccc(NC(=O)CCCc2nc(-c3ccco3)no2)c(OC)c1	109	103
Cc1ccc(SCc2nc(-c3ccc(C(=O)NCCc4ccc(Cl)cc4)cc3)oc2C)cc1	112	113
Cc1cccc(-c2nc(CSc3nncn4c3cc3sccc34)c(C)o2)c1	109	109
CC1=C(C(=O)Nc2ccccc2)C(c2ccc(O)cc2)n2nc(SCc3ccccc3)nc2N1 (stereo not given)	106	107
N#Cc1ccccc1Cn1c(=O)n(CCCC(=O)NCc2ccccc2Cl)c(=O)c2ccccc21	104	106
COc1cccc(-c2nc(CS(=O)(=O)CC(=O)Nc3c(C)cc(C)cc3C)c(C)o2)c1	100	101
COC(=O)c1cc2sc(Cl)cc2n1Cc1nc(-c2ccccc2C)oc1C	103	109
Cc1ccc(NC(=O)CCn2cnc3onc(-c4ccc(F)cc4)c3c2=O)c(Br)c1	109	111
CCc1ccc(NC(=O)CSc2nc(=O)n(Cc3cccnc3)c3c2CCC3)cc1	108	104
Cc1cccc(Cn2cccc2CNS(=O)(=O)c2ccc(C)c(C)c2)c1	110	109
COc1ccccc1NC(=O)Cn1c(=O)n(-c2ccc(C)cc2)c(=O)c2c1cnn2C	105	111
Cc1cccc(-c2nnc(SCc3cc(=O)c4cccc(Cl)c4[nH]3)n2C)c1	107	103
CC(C)CCNC(=O)c1ccc2c(c1)N(Cc1ccccc1F)C(=O)c1ccccc1S2(=O)=O	107	105
Cc1cc(C)c(Cn2c(C3CC(=O)N(c4ccc(F)cc4)C3)nc3ccccc32)c(C)c1 (stereo not given)	110	115
CCOc1ccc(-c2cn(-c3ccc(C)cc3)c(SCC(=O)Nc3ccc(C)cc3)n2)cc1	103	108
COc1ccc2c(Sc3ccc(C)cc3)c(C(=O)NC(C)C)[nH]c2c1	106	112
COc1ccccc1NC(=O)c1ncn(-c2ccccc2)n1	105	107
CC1CCN(S(=O)(=O)c2ccc3c(c2)N(CC(=O)NC(C)(C)C)C(=O)CS3)CC1	105	106
Cc1ccccc1-c1noc(-c2cc3ccccc3oc2=O)n1	122	124
COc1ccc(N2CCN(S(=O)(=O)c3cc(Br)cc4c3N(C(=O)C3CC3)CC4)CC2)cc1	100	106
COc1ccc(CCNC(=O)c2cc(=O)c3cc(C)cc(C)c3o2)cc1OC	108	111
CCCOC(=O)c1ccc(Cn2nnc3sc4c(c3c2=O)CCC(C)C4)cc1 (stereo not given)	113	121
CN1CCN(c2oc(/C=C/c3ccc(F)cc3)nc2C#N)CC1	108	110
Cc1c(C(=O)NCc2ccccc2Br)oc2c1-c1[nH]ncc1CC2	112	115
Cc1ccc(-n2nnc(-c3nc(-c4cccs4)no3)c2N)cc1C	112	118

A draw from above in order of molar mass, ascending:
SMILES	Polio RdRp inh	Polio RdRp inh intensity
COc1ccccc1NC(=O)c1ncn(-c2ccccc2)n1	105	107
Cc1ccccc1-c1noc(-c2cc3ccccc3oc2=O)n1	122	124
CN1CCN(c2oc(/C=C/c3ccc(F)cc3)nc2C#N)CC1	108	110
Cc1ccc(-n2nnc(-c3nc(-c4cccs4)no3)c2N)cc1C	112	118
COc1ccc2c(Sc3ccc(C)cc3)c(C(=O)NC(C)C)[nH]c2c1	106	112
Cc1c(C(=O)NCc2ccccc2Br)oc2c1-c1[nH]ncc1CC2	112	115
Cc1cccc(-c2nnc(SCc3cc(=O)c4cccc(Cl)c4[nH]3)n2C)c1	107	103
CCCOC(=O)c1ccc(Cn2nnc3sc4c(c3c2=O)CCC(C)C4)cc1 (stereo not given)	113	121
COC(=O)c1cc2sc(Cl)cc2n1Cc1nc(-c2ccccc2C)oc1C	103	109
COc1ccccc1NC(=O)Cn1c(=O)n(-c2ccc(C)cc2)c(=O)c2c1cnn2C	105	111
CCc1ccc(NC(=O)CSc2nc(=O)n(Cc3cccnc3)c3c2CCC3)cc1	108	104
Cc1cc(C)c(Cn2c(C3CC(=O)N(c4ccc(F)cc4)C3)nc3ccccc32)c(C)c1 (stereo not given)	110	115
COc1cccc(-c2nc(CS(=O)(=O)CC(=O)Nc3c(C)cc(C)cc3C)c(C)o2)c1	100	101
CCOc1ccc(-c2cn(-c3ccc(C)cc3)c(SCC(=O)Nc3ccc(C)cc3)n2)cc1	103	108
Cc1ccc(NC(=O)CCn2cnc3onc(-c4ccc(F)cc4)c3c2=O)c(Br)c1	109	111
CC(C)CCNC(=O)c1ccc2c(c1)N(Cc1ccccc1F)C(=O)c1ccccc1S2(=O)=O	107	105
COc1ccc(N2CCN(S(=O)(=O)c3cc(Br)cc4c3N(C(=O)C3CC3)CC4)CC2)cc1	100	106

Next records
SMILES	Polio RdRp inh	Polio RdRp inh intensity
CCNC(=O)c1cnc2sc(N3CCC(C)CC3)nn2c1=O	101	104
Cc1nc(N2CCOCC2)c2c(C(=O)N3CCN(c4ccc(Cl)cc4)CC3)c(C)oc2n1	98	103
CCCc1cc(=O)[nH]c(SCc2nc(-c3ccccc3)no2)n1	108	113
Cc1ccc(NC(=O)CSc2nc3ccc(Br)cc3[nH]2)c(C)c1	100	102
Cc1cn2c(=O)cc(COC(=O)c3ccccc3F)nc2s1	110	111
CCOc1ccc(N(CC)S(=O)(=O)N2CCCC(C(=O)Nc3ccc(OC)c(Cl)c3)C2)cc1 (stereo not given)	108	113
CC(=O)N1c2ccc(S(=O)(=O)NCc3ccc(Cl)cc3)cc2CC1C (stereo not given)	102	93
CCOc1ccc(-c2cc3nc(C4CCN(C(=O)OC(C)(C)C)CC4)c(C(=O)Nc4c(C)cccc4C)cn3n2)cc1	105	105
Cc1ccc(COc2ccc3oc(-c4ccccc4)c(C(=O)O)c3c2)cc1	101	104
CCC(C(=O)Nc1ccc(C(=O)OC)cc1)n1c(=O)c(-c2ccccc2NC(C)=O)nc2ccccc21 (stereo not given)	105	97
CCOc1ccc(NC(=O)CC2C(=O)N(c3cccc(OC)c3)C(=O)N2C2CCCCC2)cc1 (stereo not given)	103	106
O=C1N(Cc2ccccc2Cl)c2ccccc2C1(O)c1c[nH]c2ccccc12 (stereo not given)	104	106
CCc1ccc(CNC(=O)CSc2cc(=O)n(CC)c3ccccc23)cc1	110	112

Compound activity from PubChem BioAssay.

These rows are one share of the data, so the mix of outcomes need not match the whole.
